Screening data as filed in PubChem BioAssay.
TRPV1 PAM: potentiators of human vanilloid receptor 1 (TRPV1). potentiation, % at 8.33 µM. Q8NER1. 0.02% of 320,000 active. AID 540277. TRPV1-expressing cells, Fluo-8 calcium influx, capsaicin EC20 potentiation; host cell line not named in the record; control for the full effect not named in the record; active means potentiation above 80%; inconclusive means 30% to 80%; inactive means below 30%; note: 0% is about no effect
Target sequence (Q8NER1 whole entry, looked up): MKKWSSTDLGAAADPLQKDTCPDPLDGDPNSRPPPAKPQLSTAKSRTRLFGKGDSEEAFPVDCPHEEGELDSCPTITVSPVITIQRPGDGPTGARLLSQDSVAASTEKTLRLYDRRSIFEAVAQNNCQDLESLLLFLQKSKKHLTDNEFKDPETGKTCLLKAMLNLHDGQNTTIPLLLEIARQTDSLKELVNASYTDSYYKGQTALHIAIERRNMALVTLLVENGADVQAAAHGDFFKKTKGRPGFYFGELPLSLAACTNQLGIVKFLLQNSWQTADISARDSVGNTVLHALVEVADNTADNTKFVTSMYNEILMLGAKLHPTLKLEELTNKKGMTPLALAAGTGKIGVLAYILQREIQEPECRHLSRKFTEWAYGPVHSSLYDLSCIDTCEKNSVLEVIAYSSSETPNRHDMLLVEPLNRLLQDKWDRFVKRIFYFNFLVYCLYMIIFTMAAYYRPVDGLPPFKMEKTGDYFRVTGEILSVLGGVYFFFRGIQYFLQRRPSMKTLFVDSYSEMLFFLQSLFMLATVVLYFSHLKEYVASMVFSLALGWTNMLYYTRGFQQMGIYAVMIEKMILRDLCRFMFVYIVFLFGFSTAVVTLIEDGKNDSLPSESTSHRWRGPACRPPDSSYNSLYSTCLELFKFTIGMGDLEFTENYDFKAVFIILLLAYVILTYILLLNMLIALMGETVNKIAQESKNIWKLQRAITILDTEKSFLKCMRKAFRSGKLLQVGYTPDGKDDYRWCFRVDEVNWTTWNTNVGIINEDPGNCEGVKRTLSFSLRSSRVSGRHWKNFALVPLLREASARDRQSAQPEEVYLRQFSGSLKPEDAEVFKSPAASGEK
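Fluo-8 calcium influx in TRPV1-expressing cells, kinetic read (ex 480/em 520 nm). Compound added and read 3 min for agonist activity, followed by capsaicin at EC20 final and 2 min further read for enhancement.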
Menin MLL FP FL: menin-MLL binding inhibition, fluorescein peptide. Fluorescence polarization, fluorescein-MLL peptide displacement from menin. FP activity change, % at 61.4 µM. 290,000 tested, under 10 active. AID 1766; inconclusive = falling polarisation curve, or a change in total fluorescence; inactive = total fluorescence flat and polarisation flat or rising; no compound was filed as active; the % refers to the polarisation; negative = inhibition;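 note: % of control where 0% means no effect; inhibitors lower the polarisation; unlabelled MLL peptide was the positive control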
ClpP mod: qHTS Assay for Activators of ClpP; Potency, µM (highest dose often 57.5 µM), for inactives: at the highest dose activity change, negative = active; ATP-dependent Clp protease proteolytic subunit (Bacillus subtilis (strain 168)), P80244; AID 651965, 2013; purified B. subtilis ClpP, FRET peptide cleavage, 20 min; 1.9% of 340,000 active; active = well fitted falling curve with a large enough effect; inconclusive = small, poorly fitted or top-dose-only effect; inactive = no such curve, though single readings can be large or run the other way; note: potency is the fitted concentration of half-maximal effect; the source files actives as falling curves though it sought activators and does not explain the sign; nearly all actives have a fitted effect of over 65% in size; many hits overshoot -100%
Target sequence (P80244 whole entry, looked up): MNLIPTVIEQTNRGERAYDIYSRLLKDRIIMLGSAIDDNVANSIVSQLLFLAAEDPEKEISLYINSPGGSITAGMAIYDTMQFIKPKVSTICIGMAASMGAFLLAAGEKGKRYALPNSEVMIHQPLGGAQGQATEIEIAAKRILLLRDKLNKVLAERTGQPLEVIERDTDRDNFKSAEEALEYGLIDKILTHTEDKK
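FRET quenching reversal measured ClpP activation: 10 microg/mL B. subtilis ClpP at pH 8 with the FRET-FV decapeptide, read at 430 nm after 320 nm excitation. The 20-min minus 0-min signal was scaled between DMSO/no-enzyme wells and ADEP (5.8 microM final).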
Sfp inh: Sfp phosphopantetheinyl transferase inhibition. Q9F4F7. Biochemical Sfp PPTase activity, qHTS. 3.5% of 310,000 active. Potency, µM, for the others: max response, negative = inhibition, hits mostly inhibitors; active = well fitted inhibition curve with a large enough effect; inconclusive = small, poorly fitted or top-dose-only effect, or another doubt; inactive = no such curve, though single readings can be large or run the other way;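 note: the enzyme is Sfp with the accession as filed and its product quenches rhodamine fluorescence; potency is the fitted concentration of half-maximal effect; 0% = enzyme reaction without inhibitor and -100% = no enzyme wells; top concentration of the series not given in the record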
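Reaction rates are the 30-min fluorescence difference (ex 525, em 598 nm) in wells containing 15 nM Sfp, 5 uM rhodamine-CoA and 12.5 uM BHQ-2-YbbR at pH 7.6 with 10 mM MgCl2.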
D2 PAM: potentiates the human D2 dopamine receptor allosterically. potentiation, % (concentration not given with the values). DiscoveRx D2 beta-arrestin cells, luminescence, 90 min; 100% = 57 uM dopamine signal. AID 624464. 0.23% of 360,000 active; active = potentiation of 50% or more; inconclusive = 30% to 50%; inactive = 30% or less;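 note: compound concentration not given in the record; tested on top of an EC20 dose of dopamine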
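D2 cells co-treated with compound plus 50 nM dopamine (EC20) for 90 min at 37 deg C to detect potentiation. Beta-arrestin recruitment was read as enzyme-fragment luminescence after 1 h at ambient temperature. Full response was set by 57 uM dopamine.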
gsp antag: gsp mutant antagonism; AID 624288; gsp-mutant cells, cAMP HTRF, 30 min; control for the full effect not named in the record; 0.4% of 340,000 active; Potency, µM (top dose mostly 76.9 µM), for inactives: at the top dose activity change, negative = inhibition, most hits filed as inhibitors; active = falling curve of any shape with a large fitted effect; inconclusive = falling curve, mostly with a smaller effect; inactive = flat or rising curve; cell line not stated here;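 note: intracellular cAMP measured with PDE inhibitor Ro 20-1724 present during compound exposure; potency is the fitted concentration of half-maximal effect; % is set by controls: 0 for no effect and ±100 for the full control effect; nearly all actives have a fitted effect of over 65% in size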
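HTRF cAMP read-out (cAMP-d2 plus anti-cAMP antibody-K in lysis buffer, 30 min RT). Before lysis, cells are exposed to compounds with […] for 30 min at 37C in DPBS containing Ca/Mg, BSA and Tween 20.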
gsp ag: activates gsp, the McCune-Albright syndrome mutation; Potency, µM (titrated, usually from 76.9 µM), inactives show top-dose activation (cAMP increase), actives largely listed as activators; 0.13% of 340,000 active; gsp mutant cells, cAMP HTRF, 30 min; control for the full effect not named in the record; active = well fitted activation curve with a large enough effect; inconclusive = small, poorly fitted or top-dose-only effect, or another doubt; inactive = no such curve, though single readings can be large or run the other way; cell line not stated here;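 note: phosphodiesterase inhibitor Ro 20-1724 added with compounds to block cAMP breakdown; potency is the fitted concentration of half-maximal effect; nearly all actives have a fitted effect of over 60% in size; about a fifth of the inactives were tested at one dose only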
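Cells stably selected in G418 were plated at 2000/well, grown 16-24 hr, then given compounds in DMSO with the PDE inhibitor […] (300 uM solution added) for 30 min at 37C; cAMP was read by HTRF.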
* marks the source's active call; other numbers are inactive results; ? = inconclusive; . = no result given; [ ] = remark or other dose. No enrichment for hits. Share with any hit: about 5.1%.

SMILES	TRPV1 PAM	Menin MLL FP FL	ClpP mod	Sfp inh	D2 PAM	gsp antag	gsp ag
O=C(COC(=O)CC1CC2CCC1C2)Nc1ccccc1Cl (stereo not given)	.	.	-1.3%	.	-7	-3%	11%
COc1ccc2c(Cn3cnc4cc([N+](=O)[O-])ccc4c3=O)cc(=O)oc2c1	11	-0.3	.	-2%	9	10%	-3%[15.4 µM]
N#Cc1c2n(c3c(-c4ccccc4)ncnc13)CCC2	-7	2.7	32µM*	5%	-5	0%	2%
COc1ccccc1Oc1coc2c(CN3CCN(C)CC3)c(O)ccc2c1=O	0	-0.1	25µM*	6%	-10	8%	-4%
O=C(NCCCc1ccccc1)C1CC1	.	.	.	.	-3	-4%	4%[15.4 µM]
CC(C)(C)C1CCc2onc(C(=O)Nc3cccc(O)c3)c2C1 (stereo not given)	-10	5.1	.	14%	.	.	.
CC(=O)NCC(=O)N1CCCC(C(=O)c2ccc3c4c(cccc24)CC3)C1 (stereo not given)	0	4.0	4.8%	6%	-8	-3%	-2%
Cc1c(NC(=O)C23CC4CC(CC(C)(C4)C2)C3)c(=O)n(-c2ccccc2)n1C	-7	0.2	-1.3%	14%	0	0%	0%
Cc1cc(C)cc(NC(=O)C2CCC(CNC(=O)[C@@H]3Cc4ccccc4CN3)CC2)c1 (stereo not given in full)	5	3.6	-0.5%	15%	-17	6%	?
CN(CC(=O)NCc1ccncc1)S(=O)(=O)c1cc(Cl)ccc1Cl	-11	3.1	.	11%	-1	4%	-9%
COc1ccc(S(=O)(=O)N2CCN(C(=O)c3cc(C)oc3C)CC2)cc1OC	-5	.	-1.1%	.	-1	-25%	-40%[inhibitor]
O=C(O)c1ccc(C=NNC(=O)c2ccccc2NS(=O)(=O)c2cccs2)cc1	.	.	0.4%	.	0	-7%	-16%
CSC(C(=O)c1cc2ccccc2o1)c1ccccc1 (stereo not given)	-53	.	-3.2%	.	-9	6%	6%
O=C(NC(=C(Cl)Cl)S(=O)(=O)c1ccc(Cl)cc1)c1ccccc1	-12	-6.9	-2.3%	18%	-20	1%	36%
CCOC(=O)c1ccc(NS(=O)(=O)c2ccc3c(c2)oc(=O)n3C)cc1	0	-1.1	1.3%	5%	-1	-19%	-27%
O=C(CSc1nnc2ccc(-c3cccnc3)nn12)Nc1ccc(F)cc1	4	.	0.7%	.	-7	-7%	16%[15.4 µM]
Cc1noc(C)c1COc1cccc(C(=O)N2CCN(C/C=C/c3ccccc3)CC2)c1	-4	5.7	-0.1%	1%	-4	-22%	1%
Fc1ccc(OCc2cc(-c3ccccc3)no2)cc1	-15	6.7	2.7%	-14%	-12	-4%	0%
COc1cc(NC(=O)CC(C)C)ccc1NC(=O)c1ccco1	.	.	0.1%	.	15	2%	-20%
CC(=O)N1CCN(C(=O)c2ccc(NS(=O)(=O)c3ccc4[nH]c(=O)[nH]c4c3)cc2)CC1	-21	.	-0.8%	.	-4	12%	-1%[15.4 µM]
O=C(c1cccc(Br)c1)N1CCN(c2ccc(N3CCOCC3)nn2)CC1	6	.	?	.	-8	-3%	18%
O=C(COc1ccc(F)cc1Br)NCCCN1CCCC1=O	.	.	-1.8%	.	-2	7%	-3%
C[C@@H]1CN([C@H](C)CO)C(=O)CCCn2cc(nn2)CO[C@H]1CN(C)S(=O)(=O)c1ccccc1	.	.	0.4%	.	8	.	?
COc1ccccc1C(=O)NCCC(=O)Nc1ccc(OC(F)(F)F)cc1	-9	-0.9	.	3%	-8	-27%	21%[15.4 µM]
Cc1ccc(S(=O)(=O)NCCC(=O)Nc2ccc(Cl)c(Cl)c2)cc1C	-9	-0.1	-2.7%	6%	-14	?	-11%
CC(C)CC1NC(=O)N(CC(=O)Nc2ccc3c(c2)OCCO3)C1=O (stereo not given)	-2	.	0.6%	.	10	15%	6%
O=C(NN1CCCCC1)c1ccc(COc2ccc(Cl)cc2)cc1	1	5.3	.	15%	1	-4%	-3%
CN(C)CCOC(=O)C12CC3(C)CC(C)(CC(C)(C3)C1)C2	-14	-1.8	1.5%	6%	-21	3%	-37%[inhibitor]
Cc1cccc(C(=O)NCC(=O)OCc2nc(N)nc(Nc3ccccc3C)n2)c1	.	.	0.1%	.	-5	-5%	0%
O=C(/C=C/c1ccc(Cl)cc1Cl)Nc1cccc(S(=O)(=O)NC2=NCCCCC2)c1	-7	2.4	0.5%	35%	-4	4%	-7%[15.4 µM]
COc1ccccc1C(C)Nc1ccc(S(=O)(=O)N2CCN(C)CC2)cc1[N+](=O)[O-] (stereo not given)	9	.	-0.5%	.	-9	-2%	-7%
CC1(c2ccccc2)NC(=O)N(CC(=O)Nc2ccc(N3CCOCC3)cc2)C1=O (stereo not given)	.	.	-2.9%	.	-5	5%	-35%
CC(C)Sc1nc2c(c(=O)[nH]c(=O)n2C)n1Cc1ccccc1	6	-2.3	-0.3%	11%	-7	17%	-1%[15.4 µM]
CCOC(=O)N1CCN(C(=O)CNC(=O)c2nn(-c3ccc(OC)c(Cl)c3)c(=O)c3ccccc23)CC1	0	6.0	.	20%	19	-14%	9%
O=C(CSc1nccn1-c1ccc(Cl)cc1)NCc1ccc2c(c1)OCO2	-17	-2.1	0.4%	20%	-1	-2%	21%
Cc1c(NC(=O)COc2ccc(C(C)C)cc2)c(=O)n(-c2ccccc2)n1C	-15	.	1.8%	14%	-6	20%	30%
C[C@H](CO)N1C[C@H](C)[C@@H](CN(C)C(=O)Nc2ccc(C(F)(F)F)cc2)Oc2ccc(NC(=O)NC3CCCCC3)cc2C1=O	.	.	-0.5%	.	1	-6%	.
N#Cc1cn(OCc2ccccc2)c(=O)[nH]c1=O	-5	-0.6	-3.4%	25%	-3	5%	19%
Cc1c(C(=O)N2CC3(CC(c4cccc(NC(=O)CC(c5ccccc5)c5ccccc5)c4)=NO3)C[C@@H]2C(N)=O)cc([N+](=O)[O-])cc1[N+](=O)[O-] (stereo not given in full)	21	1.4	-1.1%	12%	?	-1%	.
Cc1cc2ccccc2n2c(SCC(=O)N3CCN(C(=O)c4ccco4)CC3)nnc12	-8	-3.5	.	3%	.	.	.

Another view of part of the listing above.
| SMILES | TRPV1 PAM | Menin MLL FP FL | ClpP mod | Sfp inh | D2 PAM | gsp antag | gsp ag |
| --- | --- | --- | --- | --- | --- | --- | --- |
| O=C(NN1CCCCC1)c1ccc(COc2ccc(Cl)cc2)cc1 | 1 | 5.3 | . | 15% | 1 | -4% | -3% |
| CN(C)CCOC(=O)C12CC3(C)CC(C)(CC(C)(C3)C1)C2 | -14 | -1.8 | 1.5% | 6% | -21 | 3% | -37%[inhibitor] |
| Cc1cccc(C(=O)NCC(=O)OCc2nc(N)nc(Nc3ccccc3C)n2)c1 | . | . | 0.1% | . | -5 | -5% | 0% |
| O=C(/C=C/c1ccc(Cl)cc1Cl)Nc1cccc(S(=O)(=O)NC2=NCCCCC2)c1 | -7 | 2.4 | 0.5% | 35% | -4 | 4% | -7%[15.4 µM] |
| COc1ccccc1C(C)Nc1ccc(S(=O)(=O)N2CCN(C)CC2)cc1[N+](=O)[O-] (stereo not given) | 9 | . | -0.5% | . | -9 | -2% | -7% |
| CC1(c2ccccc2)NC(=O)N(CC(=O)Nc2ccc(N3CCOCC3)cc2)C1=O (stereo not given) | . | . | -2.9% | . | -5 | 5% | -35% |

The list continues:
SMILES	TRPV1 PAM	Menin MLL FP FL	ClpP mod	Sfp inh	D2 PAM	gsp antag	gsp ag
Cc1nnc(SC(C)C(=O)Nc2sc3c(c2C#N)CCCC3)[nH]c1=O (stereo not given)	-1	-3.0	.	15%	-4	-2%	2%[15.4 µM]
CN(C)S(=O)(=O)c1cccc(NC(=O)c2ccc(-n3cncn3)c([N+](=O)[O-])c2)c1	6	.	-0.9%	.	10	-5%	-40%[inhibitor]
CSc1cccc(NC(N)=S)c1	18	1.7	.	5%	-9	6%	20%
CCOC(=O)c1c2c(n(-c3ccc(OC)cc3)c1C)C(=O)C(=O)c1ccccc1-2	.	.	-1.4%	.	?	?	-21%
C=CCn1c(NCc2ccccc2)nc2ccccc21	.	0.4	-4.7%	3%	-29	-5%	-62%[inhibitor]
CCOC(=O)C1CCN(C(=O)Cn2cc(C(=O)C3CC3)c3ccccc32)CC1	4	6.3	0.8%	15%	5	2%	10%
Cc1noc(C)c1CN1C(=O)NC2(CCCCCCC2)C1=O	-8	1.7	1.8%	5%	-1	-13%	0%
O=C(NCCN1C(=O)S/C(=C\c2ccccc2F)C1=O)C1CCN(S(=O)(=O)c2cccs2)CC1	12	4.1	?	-12%	0	?	8%
CN(C)C(CNC(=O)c1ccc(NS(=O)(=O)c2cccc([N+](=O)[O-])c2)cc1)c1ccco1 (stereo not given)	4	.	-2.6%	-8%	-2	-7%	-8%[15.4 µM]
O=C(CN1CCN(Cc2cccc(F)c2)CC1)NCc1ccccc1	-4	3.1	-0.2%	6%	-16	2%	-29%[15.4 µM]
COc1ccc(C2c3c(oc4ccc(Cl)cc4c3=O)C(=O)N2Cc2ccco2)cc1OC (stereo not given)	-9	4.1	.	-4%	.	.	.
O=c1[nH]nc(N=Nc2c(O)[nH]c3ccc(F)cc23)c(=O)[nH]1	.	.	-3.3%	.	-10	5%	25%
O=C(Cn1cc(C(=O)c2cccs2)c2ccccc21)NCC1CCCO1 (stereo not given)	-16	4.6	-10%	11%	3	-7%	28%
CCOc1cc(Br)cc(/C=N/NC(=O)c2cccnc2)c1O	0	?	.	26%	-6	-9%	-13%
CN1CCc2c(sc(NC(=O)c3ccc(S(=O)(=O)N4CCCC4)cc3)c2C(N)=O)C1	2	.	-3.3%	21%	-5	-20%	?
O=C(NCCCN1CCCC1=O)C1CCN(S(=O)(=O)N2CCOCC2)CC1	7	-2.2	10µM*	15%	4	7%	-43%
O=C(Nc1ccc(F)cc1)C1CCCN(C2=NS(=O)(=O)c3ccccc32)C1 (stereo not given)	-3	.	0.6%	.	-1	-2%	-37%[inhibitor]
CCOC(=O)CCc1c(C)c(C#N)c2nc3ccccc3n2c1-n1cnc2ccccc21	3	-3.3	1.2%	10%	0	9%	?
CN[C@@H](C)C(=O)NC[C@H]1O[C@@H](n2cnc3c(N)ncnc32)[C@H](O)[C@@H]1O	.	.	-0.3%	.	-2	10%	.
COC(=O)c1c(C(=O)OC)c(-c2ccc(C)cc2)n2c1CS(=O)(=O)C2	-13	-0.8	2.2%	6%	-9	-3%	-14%
